# From PubChem BioAssay
# VDR inhibitor – inhibitors of human vitamin D receptor; VDR-SRC2-3 peptide fluorescence polarization, 2 h; AID 504847; Potency, µM, for the others: max response, negative = inhibition, most hits filed as inhibitors; 400,000 tested, 0.93% active; P11473; active means well fitted inhibition curve with a large enough effect; inconclusive means small, poorly fitted or top-dose-only effect, or another doubt; inactive means no such curve, though single readings can be large or run the other way; further: series mostly up to about 120 µM
# Target sequence (P11473 whole entry, looked up): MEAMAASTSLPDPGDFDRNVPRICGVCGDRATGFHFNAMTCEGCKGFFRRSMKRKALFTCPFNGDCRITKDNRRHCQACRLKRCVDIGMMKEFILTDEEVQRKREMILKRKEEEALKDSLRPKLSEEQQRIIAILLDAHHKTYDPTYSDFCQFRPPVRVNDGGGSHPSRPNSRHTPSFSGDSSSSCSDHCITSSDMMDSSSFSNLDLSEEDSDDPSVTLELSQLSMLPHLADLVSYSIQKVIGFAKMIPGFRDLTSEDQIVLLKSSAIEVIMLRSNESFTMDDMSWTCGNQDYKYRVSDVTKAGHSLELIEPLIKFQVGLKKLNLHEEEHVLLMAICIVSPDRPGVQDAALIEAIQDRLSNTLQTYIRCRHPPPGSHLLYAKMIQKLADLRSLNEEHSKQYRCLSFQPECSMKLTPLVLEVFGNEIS
#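 Fluorescence polarization assay measuring small-molecule disruption of VDR binding to the coregulator peptide SRC2-3. Compounds were pin-transferred (23 nl) into the reagent mix and incubated 2 h at room temperature before reading.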
# Active calls of the source: *; ? = inconclusive; & = joins results of further samples. On the % scale 0 is the no-effect control and ±100 the full control effect; potency means the concentration at half of the fitted maximal effect. The list is partial; count on the stated rates, not on these rows.
VDR inhibitor	Compound
2%	Fc1ccc(N/N=C/c2ccncc2)c(F)c1
1%	N#Cc1ccccc1CSc1ccccn1
8%	CCCNc1c(NS(=O)(=O)c2ccc(C)cc2C)c(=O)oc2ccccc12
-7%	CC(=O)CSc1cc(-c2ccccc2)nc2ncnn12
-16%	CCOC(=O)CNS(=O)(=O)c1ccc2c3c(cccc13)C(=O)N2CC
7%	CCCn1cc(S(=O)(=O)c2cc(C)ccc2C)c(=O)c2cc(F)c(N3CCOCC3)cc21
-11%	O=C(CNC(=O)c1ccc(Cl)cc1)c1ccc(Br)cc1
-2%	COc1cccc(NC(=S)N2CCN(C)CC2)c1
-5%	Fc1cccc(CN(C2=NCCN2)c2c(Cl)cccc2Cl)c1
2%	COc1ccc(Oc2nc(-c3ccccc3)ncc2C(=O)O)cc1
6%	COC(=O)c1ccccc1NC(=O)CCCn1nc([N+](=O)[O-])cc1C
-19%	CC1=C(C(=O)OC2CCCCCC2)C(c2ccccc2Cl)CC(=O)N1 (configuration not stated)
24%	CCN(CC)S(=O)(=O)c1ccc2c(c1)nc(SCC(=O)N(C)C1CCS(=O)(=O)C1)n2CC (configuration not stated)
-17%	CS(=O)(=O)Nc1ccccc1N=C(c1ccccc1)c1ccccc1
2%	CCOC(=O)/C(C#N)=C\c1cccnc1
11%	CCOC(=O)c1sc(NC(=O)c2ccc(OC(C)=O)cc2)nc1C
-3%	CCC(=O)c1cn(CC(=O)NCc2cccnc2)c2ccccc12
-9%	COC(=O)c1ccc(C(=O)OC)c(NC(=S)N2CCC(N3CCCCC3)CC2)c1
-8%	COc1ccc(C(CNC(=O)c2cccc(S(=O)(=O)Nc3ccccc3OC)c2)N2CCCCC2)cc1 (configuration not stated)
-14%	CCCCNC(=O)/C=C/c1ccc(OC)c(Br)c1
-27%	Cc1nc(C(=O)N2CCCC(C(=O)c3ccc(Cl)cc3)C2)cs1 (configuration not stated)
7%	O=C(c1ccc2c(c1)OCCO2)N(Cc1cccnc1)c1nc2c(F)cccc2s1
-22%	CCOC(=O)c1c(NC(=O)c2ccccc2C)sc2c1CC(C)(C)OC2
1%	CC(C)Oc1ccc(CNC(=O)CCC(=O)N2CCSc3ccccc32)cc1
-13%	Cc1ccc2nc(-c3ccc(NC(=O)C(C)N4C(=O)c5ccccc5C4=O)cc3)sc2c1 (configuration not stated)
-11%	CCOC(=O)CNC(=O)C1c2cc(OC)c(OC)cc2C(=O)N(C)C1c1ccccc1F (configuration not stated)
14%	Cc1cc(C)n(CC(=O)c2cccc(N)c2)n1
7%	COCCCNC(=O)C(F)(F)C(F)(F)C(=O)NCCCOC
-6%	O=C(Nn1c(SCc2ccccc2F)nc2ccsc2c1=O)c1ccccc1
-3%	COC(=O)c1ccc(COc2ncnc3ccccc23)o1
-19%	COc1ccc(C2=NOC(C(=O)NCc3ccccc3)C2)cc1 (configuration not stated)
9%	CO/N=C\Cc1oc(=O)c(NC(=O)c2ccccc2)cc1C(=O)OC
-9%	C=CCN=C(NC#N)SCC(=O)NCc1ccccc1
-17%	COc1ccc(/C=C(/Sc2nnc(-c3ccc(Cl)cc3)o2)C(=O)O)cc1
5%	CCN(CC)S(=O)(=O)c1cccc(NC(=O)CN2C(=O)NC3(CCC(C)CC3)C2=O)c1 (configuration not stated)
9%	CCOc1ccc(CCNC(=O)c2cccc(-n3c(C)nc4cccnc43)c2C)cc1
1%	Cc1c(C(=O)Nc2cccc(-c3nc4ccccc4s3)c2)oc2ccc(F)cc12
-9%	COc1cccc(NC(=O)CSc2nnc(C3CCCCC3)n2N)c1
13%	OCCC1CN(Cc2ccc(F)cc2Cl)CCN1CCc1ccccc1 (configuration not stated)
-13%	CCCCn1c(N)c(N(CC(C)C)C(=O)c2cnccn2)c(=O)[nH]c1=O
10%	COc1ccc(C2C(C(N)=O)=C(C)Nc3nc(-c4cccc(Cl)c4)nn32)cc1OC (configuration not stated)
-4%	Cc1ccc(S(=O)(=O)N2CCCCCC2)cc1C(=O)Nc1cccnc1
-8%	Cc1cc(C)n(-c2nc3cc(Cl)ccc3nc2Nc2ccc(C)c(F)c2)n1
5%	Cc1nc2c(c(SCC(=O)Nc3ccccc3C(F)(F)F)n1)CCC2
-5%	O=C(CSc1nnc(NC(=O)C2CC2)s1)Nc1ccc(F)cc1
13%	CCCn1c(NC(=O)c2cccc(S(=O)(=O)N3CCCC3)c2)nc2ccccc21
-25%	CN(C)S(=O)(=O)N1CCC(Oc2ccc(C(=O)NCCc3cscn3)cc2)CC1
18%	O=C(CSc1nc2ccncc2[nH]1)Nc1ccccc1C(F)(F)F
-11%	O=C(Nc1ccccc1Sc1ccccc1)c1cnn2c1NC(=C1CC1)C=C2C(F)F
2%	CCCCNc1ccc(C(CC(N)=O)NC(=O)Cc2ccc(Br)cc2)cc1[N+](=O)[O-] (configuration not stated)

# Other results:
VDR inhibitor	Compound
12%	Cc1ccc(NC(=O)CN(C)C(=O)c2ccccc2Sc2ccccc2C#N)cc1
-1%	Cc1cc(C)c(C#N)c(N2CCN(c3ccc(F)cc3)CC2)n1
-9%	COc1ccc(Cn2c(CCC(=O)NCCC(C)C)nc3ncccc3c2=O)cc1
-1%	Cc1ccc(S(=O)(=O)N(CC(=O)N/N=C/c2cccc(Cl)c2)c2cccc3cccnc23)cc1
8%	CC1CCN(S(=O)(=O)c2cc(C(=O)N3CCN(c4ccccc4F)CC3)n(C)c2)CC1
-12%	O=C(C1CC(=O)N(C2CCCCC2)C1)N1CCN(c2ccccc2)CC1 (configuration not stated)
-18%	CN(C)c1ccc(-c2nn3c(-c4ccc(Cl)cc4)nnc3s2)cc1
-9%	Cc1cccc(C(=O)Nc2onc(C)c2C#N)c1
5%	C[C@H]1CN([C@@H](C)CO)C(=O)Cc2cc(NC(=O)CCC(F)(F)F)ccc2O[C@H]1CN(C)S(=O)(=O)c1ccc(F)cc1
-8%	Cn1c(=O)n(C)c2cc(NC(=O)C(F)(F)F)ccc21
-2%	Cc1ccc(NC(=O)Cn2c(SCc3ccc(F)cc3)nc3cccnc32)cc1F
79µM*	CC(=O)N(c1ccc2oc(=O)sc2c1)S(=O)(=O)c1ccc(C(=O)O)cc1
12%	Cc1ccc(NC(=S)N2CCC(N(C)CC3CCCO3)CC2)cc1C (configuration not stated)
8%	Cc1cc(NC(=O)c2cc(-c3ccncc3)nc3c(C)cccc23)no1
-2%	CCOc1ccc(NC(=O)COc2ccc(S(=O)(=O)N3CCOCC3)cc2)cc1
-10%	CCCCN1C(=O)C(NC(=O)c2cccnc2)(C(F)(F)F)C2=C1CC(C)(C)CC2=O (configuration not stated)
-6%	CCOC(=O)C1=C(CNCCc2ccc(Cl)cc2)NC(=O)NC1c1cccc([N+](=O)[O-])c1 (configuration not stated)
-12%	CCOc1ccc(-n2c(=S)sc3c(=O)n(-c4ccc(F)cc4)c(SCC(=O)O)nc32)cc1
-25%	CC1CCCC(C)N1/N=C/c1cccc([N+](=O)[O-])c1 (configuration not stated)
2%	COc1ccc(OCC(=O)OC(C)CN2CCOCC2)cc1 (configuration not stated)
10%	COc1ccc(CNC(=O)CN(C(=O)c2csnn2)c2ccccc2F)cc1
6%	O=C(Nc1ccccc1)N1CC2(CCN(C(=O)c3ccncc3)CC2)C1
-10%	O=C(COC(=O)CCCSc1nc2ccccc2[nH]1)Nc1ccc(Oc2ccccc2)cc1
-20%	COc1cc(/C=C(/C#N)c2ccccc2F)ccc1OCc1ccccc1
-18%&5%	Cc1ccc(-c2ccc(=O)n(CC(=O)NCc3ccc(F)cc3)n2)cc1

# In a second layout: 4 of the compounds above
CC(=O)N(c1ccc2oc(=O)sc2c1)S(=O)(=O)c1ccc(C(=O)O)cc1
- VDR inhibitor = 79µM*
Cc1ccc(NC(=S)N2CCC(N(C)CC3CCCO3)CC2)cc1C (configuration not stated)
- VDR inhibitor = 12%
Cc1cc(NC(=O)c2cc(-c3ccncc3)nc3c(C)cccc23)no1
- VDR inhibitor = 8%
CCOc1ccc(NC(=O)COc2ccc(S(=O)(=O)N3CCOCC3)cc2)cc1
- VDR inhibitor = -2%

# Three compounds drawn at random from those above:
VDR inhibitor	Compound
2%	COc1ccc(Oc2nc(-c3ccccc3)ncc2C(=O)O)cc1
-11%	O=C(CNC(=O)c1ccc(Cl)cc1)c1ccc(Br)cc1
1%	N#Cc1ccccc1CSc1ccccn1

# Next records:
VDR inhibitor	Compound
14%	OCC(O)C1OC(Oc2ccccc2)C(O)C(O)C1O (configuration not stated)
6%	COC(=O)c1ccccc1NC(=O)CSc1cc(-c2ccccc2)nc(C)n1
-14%	Cc1ccc(Cl)cc1N1CCN(C(=O)c2cn(C)c(=O)c3c2c2ccccc2n3C)CC1
26%	CC1(c2ccc3ccccc3c2)NC(=O)N(CC(=O)N2CCN(Cc3ccccc3)CC2)C1=O (configuration not stated)
-2%	CN(C)c1ncc(S(=O)(=O)c2ccc(Cl)cc2)c(-c2ccccc2)n1
0%	COc1cccc(NC(=S)N2CCC(Cc3ccccc3)CC2)c1
-3%	COc1ccc(Cl)c2sc(N3CCN(C(=O)c4ccco4)CC3)nc12
2%	Cc1nn(C)c2c1c(C(F)(F)F)cc(=O)n2Cc1ccc(Br)cc1F
9%	CC(=O)c1cc(CN2CCC(N3CCC(C(=O)N4CCCC4)CC3)CC2)cs1
-14%	Cc1nnc(NC(=O)c2ccc3ccccc3c2)o1
?	CC(=O)c1ccc(NC(=O)COC(=O)Cn2cnc3ccccc32)cc1
0%	CCn1c(COc2cccc(OC)c2)nnc1SCC(=O)N1CCOCC1
-21%	Cc1ccc(C(=O)Oc2oc(-c3ccccc3)nc2C=Nc2ccc(N(C)C)cc2)cc1
-8%	O=C(Nc1cc(Cl)cc(Cl)c1)C1CCCC1
15%	COc1ccccc1CCNC(=O)C1CCCO1 (configuration not stated)
?	Cc1[nH]n(-c2ccccc2)c(=S)c1C=NCCCN=Cc1c(C)[nH]n(-c2ccccc2)c1=S
-2%	CC(C)(C)c1ccc(OCC(=O)N/N=C/c2ccc(N3CCOCC3)cc2)cc1
-6%	OC(CN1CCN(c2ccc(C(F)(F)F)cn2)CC1)c1ccccc1 (configuration not stated)
-2%	C#CCOCCOCCOCCNc1nc(N2CCN(C(=O)[C@H](CCCCN)n3cc([C@@H](N)C(C)CC)nn3)CC2)nc(N2CCN(C(=O)[C@H](Cc3ccc(O)cc3)n3cc([C@@H](N)CC(C)C)nn3)CC2)n1 (some centres not stated)
-9%	CNC(=S)NNC(=O)c1cc(-c2cccnc2)nc2ccccc12
-5%	CCc1ccc(CNC(=O)COc2cc(=O)n(CC)c3ccccc23)cc1
79µM*	CCN1CCc2c(sc(NC(=S)NC(=O)c3ccccc3)c2C#N)C1
9%	Cc1ccc(N2CCN(S(=O)(=O)c3nnc(NC(=O)c4ccc(C(C)C)cc4)s3)CC2)cc1
1%	O=S(=O)(c1ccc(Cl)cc1)N1CCN(C2CCN(Cc3ccccc3)CC2)CC1
6%	Cc1ccc(OCc2cc(C(=O)NC3CCCCC3)no2)cn1
-4%	CCOC(=O)c1nn(-c2ccccc2)c2nnc(Cc3ccc(C)cc3)c(=O)n12
5%	Cc1ccc(S(=O)(=O)N2CCCC2C(=O)OCc2nc3ccccc3s2)cc1 (configuration not stated)
-7%	Cc1cc2nc(-c3ccccc3)cc(=O)n2[nH]1
-18%	COc1ccc(CN2C(=O)c3cccnc3C2=O)cc1S(=O)(=O)N1CCOc2ccc(Cl)cc21
-2%	CCOc1c(CNCCCSc2nc(C)cc(C)n2)cccc1OC
?	O=C(O)c1ccc(N2C(=O)CC(N3C(=O)/C(=C/c4ccc(Cl)cc4)SC3=S)C2=O)cc1 (configuration not stated)
-2%	Cc1sc(NC(=O)CN2CCCC2)nc1-c1ccc2c(c1)CCN2C(=O)c1ccc(F)cc1
1%	CCC(C)[C@H](NC(=O)[C@@H]1Cc2ccccc2CN1)C(=O)Nc1ccc2c(c1)OCO2 (some centres not stated)
4%	COC(=O)c1ccc(NC(=O)CCCC(=O)OCC(=O)c2ccc(Cl)cc2)cc1
-18%	COc1ccc(CCNS(=O)(=O)c2ccc(Br)cc2)cc1
-10%	Cc1sc2nc(C3CC3)nc(SCC(=O)N3CC(=O)Nc4ccccc43)c2c1C
3%	COc1ccc(-c2noc(CCCC(=O)NC3CCCCC3)n2)cc1
-3%	O=C(CSc1nnc(NC(=O)C2CC2)s1)Nc1cccc(F)c1
-5%	NC(=O)C1(N2CCCCC2)CCN(C(=O)c2cccs2)CC1
-21%	CN(C)S(=O)(=O)Nc1cccc(-c2cn3c(n2)SCC3)c1
-5%	Cc1ccc(C)c(OCC(O)CN2CCC(C)CC2)c1C (configuration not stated)
9%	O=C(CN1C2=NCCCN2c2ccccc21)c1cccs1
8%	COc1cccc2cc(C(=O)N3CCN(C(=O)c4ccccc4)CC3)c(=O)oc12
-14%	CC(C)OC(=O)c1nnn(-c2nonc2N)c1CN1CCCCCC1
1%	CC1(C)CC(NC(=O)Cc2ccc(Cl)cc2)CC(C)(C)N1
5%	Cc1cc(C(=O)NC2CCCc3ccccc32)no1 (configuration not stated)
17%	COc1ccc(NC(=O)C2(c3ccccc3)CCCC2)cc1
15%	C=CCn1c(SCC(=O)Nc2ccc(Cl)cn2)nnc1C1CC1
4%	COc1ccc(-n2c(=O)c3ccc(C(=O)NCc4ccc(C)cc4)cc3n(Cc3ccc(Cl)cc3)c2=O)cc1
-9%	CO/N=C/c1ccc(N2CCN(C(=O)c3cccc(Cl)c3)CC2)c([N+](=O)[O-])c1
2%	COc1ccccc1N(C(=O)Cn1nnc2ccccc21)C(C(=O)NCc1ccco1)c1ccc(C)o1 (configuration not stated)

# Some of the entries so far, with each value named.
COc1ccccc1CCNC(=O)C1CCCO1 (configuration not stated)
  VDR inhibitor: 15%
CC(C)Oc1ccc(CNC(=O)CCC(=O)N2CCSc3ccccc32)cc1
  VDR inhibitor: 1%
Cc1ccc(Cl)cc1N1CCN(C(=O)c2cn(C)c(=O)c3c2c2ccccc2n3C)CC1
  VDR inhibitor: -14%
